Source: PubChem
PINK1 expr mod: changes PINK1 expression; 0.2% of 410,000 active; Potency, µM (titrated, usually from 76.6 µM), inactives show at the top dose activation (PINK1 increase), actives largely listed as activators; PINK1 immunofluorescence, high-content cytometry, 24 h; AID 624263; active = well fitted activation curve with a large enough effect; inconclusive = small, poorly fitted or top-dose-only effect; inactive = flat fitted curve, though single readings scatter; cell line not stated here;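 further: potency means the concentration at half of the fitted maximal effect; % of control where 0% means no effect; nearly all actives have a fitted effect of over 65% in size; a mitochondrial uncoupler was the plate control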
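Readout is PINK1 immunofluorescence, quantified alongside mitochondrial, cell and nuclear markers by laser-scanning microplate cytometry. Cells from a stable line were exposed to compound titrations (5 concentrations) for 24 hours, with CCCP controls.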
CtBP-E1A inh: CtBP/E1A binding inhibition. 0.49% of 340,000 active. AID 651724. activity change, % (concentration not given with the values). AlphaScreen GST-E1A/His-CtBP binding, 1536-well; stronger effect = lower value; control for the full effect not named in the record; in the data active means activity change below about -65%; inconclusive means about -30% to -65%; inactive means above about -30%; further: on the % scale 0 is the no-effect control and ±100 the full control effect
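GST-E1A and His-tagged CtBP (125 nM each as 5X stock) were preincubated with pin-transferred compound for 2 h at 37 °C in the dark, then glutathione donor and nickel acceptor beads were added for 1 h before AlphaScreen reading.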
D2 potentiator: positive allosteric modulators of human D2 dopamine receptor. P14416. DiscoveRx D2 beta-arrestin cells, luminescence, 90 min; 100% = 57 uM dopamine signal. potentiation, % (test concentration not listed). 0.23% of 360,000 active; active = potentiation of 50% or more; inconclusive = 30% to 50%; inactive = 30% or less;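 further: compound concentration not given in the record; tested on top of an EC20 dose of dopamine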
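PathHunter D2 cells, attached overnight at 37 deg C, received compound in DMSO plus dopamine at EC20 (50 nM final) for 90 min at 37 deg C. Beta-arrestin recruitment was read as luminescence after 1 h with detection reagent at ambient temperature.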
D2 agonist: human D2 receptor agonism in beta-arrestin assay | AID 624465 | 0.084% of 360,000 active | activation, % (no concentration beside the values) | DiscoveRx PathHunter D2 beta-arrestin, luminescence, 90 min; 100% = 57 uM dopamine signal; in the data active = activation above about 40%; inconclusive = about 15% to 40%; inactive = below about 15%; further: compound concentration not given in the record; the text of the record calls up to 30% inactive
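Agonist mode: compounds alone added to overnight-plated D2 PathHunter cells for 90 min at 37 C, with 57 uM final dopamine (EC100) defining full response. Beta-arrestin recruitment detected by chemiluminescent reagent, read after 1 h at ambient temperature.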
Six1-Eya2 inh: blocks human Six1 binding to Eya2; AlphaScreen GST-Six1/His-Eya2 binding, biochemical; stronger effect = lower value; control for the full effect not named in the record; activity change, % (test concentration not listed); 0.56% of 360,000 active; AID 651725; in the data active = activity change below about -65%; inconclusive = about -30% to -65%; inactive = above about -30%; further: on the % scale 0 is the no-effect control and ±100 the full control effect; compound concentration not given in the record
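GST-Six1 + His-Eya2 (5X stock: 250/500 nM); Tris pH 8.0, 300 mM NaCl, 0.05% BSA, 0.02% Tween 20; GSH donor/Ni acceptor beads; 1 h 37 °C dark; AlphaScreen readout.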
Sfp PPTase inh: inhibitors of Bacillus subtilis Sfp phosphopantetheinyl transferase. Biochemical Sfp PPTase activity, qHTS. Potency, µM, for inactives: max response, negative = inhibition, most hits filed as inhibitors. 3.5% of 310,000 active. AID 1490; active means well fitted inhibition curve with a large enough effect; inconclusive means small, poorly fitted or top-dose-only effect, or another doubt; inactive means no such curve, though single readings can be large or run the other way;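 further: the enzyme is Sfp with the accession as filed and its product quenches rhodamine fluorescence; potency means the concentration at half of the fitted maximal effect; 0% = enzyme reaction without inhibitor and -100% = no enzyme wells; top concentration of the series not given in the record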
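Step 1, compound plus 15 nM Sfp-PPTase, 15 min, room temperature. Step 2, add rhodamine-CoA (5 uM) and BHQ-2-YbbR (12.5 uM). Step 3, read 525/598 nm fluorescence at 0 and 30 min.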
TRPV1 PAM: potentiators of human vanilloid receptor 1 (TRPV1) | Q8NER1 | TRPV1-expressing cells, Fluo-8 calcium influx, capsaicin EC20 potentiation; host cell line not named in the record; control for the full effect not named in the record | potentiation, % at 8.33 µM | 0.02% of 320,000 active; active means potentiation above 80%; inconclusive means 30% to 80%; inactive means below 30%; further: 0% is about no effect
Target sequence (Q8NER1 whole entry, looked up): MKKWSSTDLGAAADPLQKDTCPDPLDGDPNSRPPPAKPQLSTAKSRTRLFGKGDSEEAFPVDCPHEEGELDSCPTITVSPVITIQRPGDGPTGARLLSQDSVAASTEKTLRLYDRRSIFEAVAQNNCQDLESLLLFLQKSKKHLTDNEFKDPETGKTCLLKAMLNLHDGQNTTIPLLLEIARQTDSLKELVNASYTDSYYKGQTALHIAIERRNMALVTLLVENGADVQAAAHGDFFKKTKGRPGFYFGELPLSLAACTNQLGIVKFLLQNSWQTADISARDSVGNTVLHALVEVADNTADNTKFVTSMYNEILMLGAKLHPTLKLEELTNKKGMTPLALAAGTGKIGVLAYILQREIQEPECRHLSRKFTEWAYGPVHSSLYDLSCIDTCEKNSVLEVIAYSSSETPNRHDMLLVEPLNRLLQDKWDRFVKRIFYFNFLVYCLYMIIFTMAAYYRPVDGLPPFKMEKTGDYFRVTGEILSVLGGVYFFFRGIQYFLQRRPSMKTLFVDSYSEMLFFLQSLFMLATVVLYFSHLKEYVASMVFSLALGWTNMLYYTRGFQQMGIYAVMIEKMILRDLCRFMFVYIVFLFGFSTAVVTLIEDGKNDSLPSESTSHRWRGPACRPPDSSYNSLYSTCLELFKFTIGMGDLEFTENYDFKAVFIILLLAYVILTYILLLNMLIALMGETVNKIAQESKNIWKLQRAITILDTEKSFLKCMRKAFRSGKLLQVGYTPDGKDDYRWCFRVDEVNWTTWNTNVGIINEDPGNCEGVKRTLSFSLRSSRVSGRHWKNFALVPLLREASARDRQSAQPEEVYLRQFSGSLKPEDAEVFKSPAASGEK
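Cells expressing TRPV1 were dye-loaded with Fluo-8 and read kinetically: 10 s baseline, 3 min after compound (agonist portion), then 2 min after EC20 capsaicin (allosteric enhancer portion). Calcium-bound dye fluorescence at 480/520 nm.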
Starred values were filed as active, the others as inactive; u = inconclusive; x = not tested or not shown; & = joins results of further samples; [ ] = remark or other dose.

# | SMILES | PINK1 expr mod | CtBP-E1A inh | D2 potentiator | D2 agonist
1 | C=CCc1ccccc1OCC(O)CNC (centres undefined) | 0.9% | 4 | -21 | -0.8
2 | CC1(C(=O)NS(=O)(=O)c2ccc(Cl)s2)CCN1C(=O)C1(c2ccc(Cl)cc2)CC1 (centres undefined) | 0.9% | 9 | 3 | 3.8
3 | CS(=O)(=O)N(CC(=O)NCc1ccco1)c1cccc([N+](=O)[O-])c1 | -1.2% | x | 5 | 0.2
4 | N#CCCN1CCC(NC(=O)OCc2ccccc2)CCC1=O (centres undefined) | 0.1% | -10 | -7 | -1.7
5 | CC(C)NC(=O)[C@@H]1C[C@@]1(C)[C@@H](NC(=O)OCc1ccccc1)c1ccccc1 | 0.4% | 8 | -3 | 1.5
6 | COCCN1C=C(C(=O)OC)C(c2cc3c(cc2Br)OCO3)C(C(=O)OC)=C1 | 4µM* | 4 | -15 | 1.3
7 | COc1ccc(-c2cc(C(=O)NCC3CCCO3)c3cc(C(C)C)ccc3n2)cc1 (centres undefined) | 12% | 8 | 2 | 4.5
8 | COc1ccc(/C=C\c2onc(C)c2S(=O)(=O)N2CCC(C(=O)NCc3ccco3)CC2)cc1 | 5.2% | 1 | u | 1.0
9 | O=C(Nc1ccccc1C(=O)NC(Cc1ccccc1)C(=O)O)c1ccccc1 (centres undefined) | 0.2% | 3 | -4 | -2.5
10 | CCOC(=O)c1c(NC(=O)c2c(Br)cnn2CC)sc(C)c1C | 16% | 8 | -9 | -1.5
11 | Cc1nc2ccccc2cc1C(=O)N/N=C/c1ccccc1[N+](=O)[O-] | 2.5% | -4 | 8 | -3.1
12 | Cc1c(CC(=O)O)c(=O)oc2c(C)c3occ(-c4ccc(Br)cc4)c3cc12 | -1.4% | u | 1 | 0.1
13 | O=C(CSc1nnc(NC(=O)c2cccc(F)c2)s1)NC1CCCC1 | 0.5% | -2 | -8 | 0.5
14 | CCOC(=O)C1=CC[C@@H](c2ccccc2)N(S(=O)(=O)c2ccc(C)cc2)[C@H]1C#N | 1.9% | 10 | -12 | -11
15 | Cc1ccc(C)c(NC(=O)CN(C)C(=O)c2cc3ccccc3o2)c1 | 1.6% | x | -12 | 5.2

# | Six1-Eya2 inh | Sfp PPTase inh | TRPV1 PAM
1 | 1 | 22% | x
2 | 4 | x | x
3 | -13 | 9% | 7
4 | 0 | 17% | 27
5 | 1 | 9%&3% | 4
6 | 5 | 6% | u
7 | 5 | -14% | -8
8 | 3 | 13% | 4
9 | 11 | -5% | 0
10 | 2 | 3% | 1
11 | -8 | -3% | -1
12 | u | -17% | 25
13 | -1 | 27% | -12
14 | 2 | x | x
15 | 11 | -16% | -8

Sorted by the number under PINK1 expr mod (rising): three from the list above
item	SMILES	PINK1 expr mod	CtBP-E1A inh	D2 potentiator	D2 agonist	Six1-Eya2 inh	Sfp PPTase inh
12	Cc1c(CC(=O)O)c(=O)oc2c(C)c3occ(-c4ccc(Br)cc4)c3cc12	-1.4%	u	1	0.1	u	-17%
9	O=C(Nc1ccccc1C(=O)NC(Cc1ccccc1)C(=O)O)c1ccccc1 (centres undefined)	0.2%	3	-4	-2.5	11	-5%
8	COc1ccc(/C=C\c2onc(C)c2S(=O)(=O)N2CCC(C(=O)NCc3ccco3)CC2)cc1	5.2%	1	u	1.0	3	13%

(more compounds)
# | SMILES | PINK1 expr mod | CtBP-E1A inh | D2 potentiator | D2 agonist
16 | CCc1ccc(NC(=O)CSc2nnc(COc3ccc4c(c3)CCCC4)o2)cc1 | 0.9% | 5 | 18 | -1.6
17 | COc1cc(/C=C/C(=O)NCC(=O)N2CCC(N(C)CCN3CCOCC3)CC2)ccc1OC(C)C | 0.6% | 2 | -6 | 0.7
18 | CC(CNC(=O)c1ccc(Br)o1)NC(=O)c1ccc(Br)o1 (centres undefined) | 1.8% | 4 | -2 | -1.9
19 | Cc1ccc(C(=O)CNc2nc3c(c(=O)[nH]c(=O)n3C)n2Cc2ccccc2)cc1 | 2.0% | 3 | -6 | -1.5
20 | C=CCN1C=C(C(=O)c2ccccc2)C(=O)CC1 | -0.8% | -7 | x | -4.8
21 | COCC1CCN(C(=O)CCc2nnc(C3(c4ccc(Cl)cc4)CCC3)o2)C1 (centres undefined) | 0.8% | 3 | -13 | -4.1
22 | CCCNC(=O)CN(Cc1ccccc1F)S(=O)(=O)c1ccc(C)cc1 | 2.3%[38.3 µM] | -1 | -10 | -2.0
23 | CC(C)(C)N1CC(OC(N)=O)C1 | 1.5% | x | 4 | 1.0
24 | Cc1ccc(Oc2nc(C(F)(F)F)nc3ccccc23)cc1 | 8.2% | -3 | 10 | -6.4
25 | CC(=O)OC[C@@H]1CN(Cc2ccccc2)C[C@H](n2ccc3c(N)ncnc32)O1 | 0.5% | 3 | 0 | -2.1
26 | COc1cc(N=Nc2ccc(C)cc2S(N)(=O)=O)c(C)cc1N | 7.2% | u | -23 | -6.2
27 | Cc1ccc(CNC(=O)c2ccc(-n3cccc3)cc2)cc1 | 1.6% | 6 | -5 | 3.7
28 | O=C(CSc1n[nH]c(-c2ccccc2O)n1)N1CCCc2ccccc21 | 4.9% | -1 | -11 | -3.6
29 | Cc1ccc2c3c1C1(C(=O)N3C(C)(C)CC2C)C(C#N)=C(N)Oc2cc(O)ccc21 (centres undefined) | -1.1% | -2 | -8 | -1.0
30 | Cc1ccc2nc(NC(=O)CN3C(=O)NC4(CCCCC4)C3=O)sc2c1 | 10% | 9 | 3 | 0.1

# | Six1-Eya2 inh | Sfp PPTase inh | TRPV1 PAM
16 | -2 | 23% | 17
17 | -3 | 9% | 3
18 | 6 | 7% | 5
19 | -6 | -3% | 5
20 | 5 | x | x
21 | -4 | 0% | 9
22 | 4 | 10% | -11
23 | -1 | 17% | 14
24 | 18 | 8% | 19
25 | 2 | x | x
26 | u | x | x
27 | u | 4% | 2
28 | -2 | 7% | -8
29 | -8 | -5% | 6
30 | 4 | x | -5

The list goes on:
# | SMILES | PINK1 expr mod | CtBP-E1A inh | D2 potentiator | D2 agonist
31 | Cc1cc(Br)cc(Br)c1OCC(=O)NNC(=O)CCC(=O)NCc1ccccc1 | 0.1% | 8 | 4 | -3.0
32 | Cc1ccc(C(=O)Nc2ccccc2C(=O)Nc2ccccn2)cc1Cl | 1.7% | 0 | -9 | -7.3
33 | Cn1ncn2c(=O)c3c(nc12)-c1ccccc1CC31CCCC1 | 10% | 6 | 1 | 0.5
34 | Cc1ccc(Cn2c(N)c(S(=O)(=O)c3cccs3)c3nc4ccccc4nc32)cc1 | 26% | 12 | 6 | -3.9
35 | COc1ccc(CNC(=O)CNC(c2ccccc2)c2ccccc2)cc1OC | 0.7% | -8 | -1 | 3.9
36 | COc1ccc(/C=N/NC(=O)CNc2n[nH]c(=O)[nH]c2=O)cc1OC | -1.4% | -8 | -5 | -11
37 | COc1ccc(N2CCN(S(=O)(=O)c3ccc(OC)c(C(=O)N4CCCC4)c3)CC2)cc1 | -0.2% | -9 | -13 | -1.5
38 | C/C=C(/C)C(=O)Nc1cccc(C2=NOC3(C2)C[C@H](C(N)=O)N(C(=O)c2ccccc2)C3)c1 (some centres undefined) | 0.3% | 4 | -5 | -2.3
39 | Cc1cc2[nH]c(=O)c(=O)[nH]c2cc1S(=O)(=O)Nc1cccc(C)c1C | 1.4% | x | 3 | 2.0
40 | Cc1ccc2c(=O)n3c(nc2c1)C(Cc1ccccc1)NC(=O)c1cc2ccccc2cc1-3 (centres undefined) | 6.6% | -6 | x | 0.9
41 | Cc1ccccc1C(=O)NNC(=O)/C=C\C(=O)O | 1.0% | 0 | -8 | -10
42 | S=C(NCCCN1CCOCC1)NC1CC1 | 2.8% | 8 | -11 | -1.4
43 | CC1(C)CC(=O)c2cc(NC(=O)c3ccc(F)cc3)c(=O)oc2C1 | 0.2% | -2 | -3 | -2.7
44 | O=C(COC(=O)c1cnccn1)Nc1ncc(C(F)(F)F)cc1Cl | -0.5% | -3 | -9 | -5.1
45 | CCOC(=O)C(NCc1ccccn1)(NC(=O)c1cccnc1)C(F)(F)F (centres undefined) | 1.7% | 0 | -5 | -17

# | Six1-Eya2 inh | Sfp PPTase inh | TRPV1 PAM
31 | 4 | -3% | 8
32 | 0 | 3% | 26
33 | 6 | -1% | -17
34 | 5 | 12% | 12
35 | -7 | 18% | -14
36 | -3 | 16% | 6
37 | -5 | 6% | 16
38 | 7 | 11% | -14
39 | 3 | -2% | -4
40 | -6 | x | x
41 | -12 | 22µM* | -17
42 | 0 | -6% | 2
43 | 4 | 9% | -6
44 | -7 | x | x
45 | -83* | u | 12

Entries from the list above containing bromine:
# | SMILES | PINK1 expr mod | CtBP-E1A inh | D2 potentiator | D2 agonist
6 | COCCN1C=C(C(=O)OC)C(c2cc3c(cc2Br)OCO3)C(C(=O)OC)=C1 | 4µM* | 4 | -15 | 1.3
10 | CCOC(=O)c1c(NC(=O)c2c(Br)cnn2CC)sc(C)c1C | 16% | 8 | -9 | -1.5
12 | Cc1c(CC(=O)O)c(=O)oc2c(C)c3occ(-c4ccc(Br)cc4)c3cc12 | -1.4% | u | 1 | 0.1
18 | CC(CNC(=O)c1ccc(Br)o1)NC(=O)c1ccc(Br)o1 (centres undefined) | 1.8% | 4 | -2 | -1.9
31 | Cc1cc(Br)cc(Br)c1OCC(=O)NNC(=O)CCC(=O)NCc1ccccc1 | 0.1% | 8 | 4 | -3.0

# | Six1-Eya2 inh | Sfp PPTase inh | TRPV1 PAM
6 | 5 | 6% | u
10 | 2 | 3% | 1
12 | u | -17% | 25
18 | 6 | 7% | 5
31 | 4 | -3% | 8

(further entries)
# | SMILES | PINK1 expr mod | CtBP-E1A inh | D2 potentiator | D2 agonist
46 | CC1(C)Cc2c(sc3nc4n(c(=N)c23)CCCCC4)CO1 | -0.2% | 1 | -16 | -1.2
47 | CSc1ncccc1C(=O)Nc1cccc(S(=O)(=O)N2CCCC2)c1 | -0.9% | -8 | -3 | -7.1
48 | Nc1ccc(-c2cc(-c3cccc(N)c3)nc(-c3ccccc3)n2)cc1 | 3.9% | 10 | 7 | 1.5
49 | COc1ccc(-c2cc(C(=O)N(C)Cc3nc4ccccc4c(=O)[nH]3)c3ccccc3n2)cc1OC | -1.5% | -1 | 15 | u
50 | COc1ccc(S(=O)(=O)NCC(=O)N(CC(=O)NCc2ccccc2)Cc2ccco2)cc1 | 1.1% | -5 | -3 | -5.3

# | Six1-Eya2 inh | Sfp PPTase inh | TRPV1 PAM
46 | 1 | 25% | u
47 | -2 | x | x
48 | 8 | -3% | 11
49 | -6 | x | x
50 | -19 | 4% | 2
